# Bioassay records: PubChem BioAssay, National Center for Advancing Translational Sciences (NCATS)
# TRPML1 ag – activates the human TRPML1 channel; TRPML1-expressing cells, Ca2+ dye fluorescence, FDSS; host cell line not named in the record; reference of the full effect not given here; hit rate 0.12% among 410,000; AID 624414; activation, % (test concentration not listed); in the data active = activation above about 50%; inconclusive = about 30% to 50%; inactive = below about 30%; further: 0% is about no effect; the text of the record puts the active cut at 80%
# Target sequence (Q9GZU1 whole entry, looked up): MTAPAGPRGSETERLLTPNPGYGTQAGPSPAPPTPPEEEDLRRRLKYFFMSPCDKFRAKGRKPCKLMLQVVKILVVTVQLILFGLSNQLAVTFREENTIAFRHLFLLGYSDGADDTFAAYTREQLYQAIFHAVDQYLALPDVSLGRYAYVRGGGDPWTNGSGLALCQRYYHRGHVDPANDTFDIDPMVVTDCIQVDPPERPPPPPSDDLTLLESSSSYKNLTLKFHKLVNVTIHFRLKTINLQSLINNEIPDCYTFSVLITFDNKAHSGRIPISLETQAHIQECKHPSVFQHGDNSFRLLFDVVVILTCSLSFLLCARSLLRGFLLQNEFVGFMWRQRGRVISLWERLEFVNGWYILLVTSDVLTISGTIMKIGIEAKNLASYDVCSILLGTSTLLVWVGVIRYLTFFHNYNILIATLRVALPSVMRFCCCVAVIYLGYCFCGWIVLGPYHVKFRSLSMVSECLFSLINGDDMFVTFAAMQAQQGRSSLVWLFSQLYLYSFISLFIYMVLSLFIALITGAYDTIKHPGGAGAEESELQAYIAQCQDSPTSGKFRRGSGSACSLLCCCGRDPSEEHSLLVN
#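 Agonist activity was taken from a 110 s kinetic Ca2+ dye read on the FDSS after pinning compounds onto TRPML1-DL cells. The cells were seeded at 1,500/well with Tet inducer, incubated about 16 h, then dye-loaded at room temperature.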
# TRPML1 inh – blocks the human TRPML1 channel. TRPML1-inducible cells, Ca2+ dye fluorescence, FDSS; active compounds read low; inhibition of EC80 agonist-evoked calcium signal. activity change, negative = inhibition, % (test concentration not listed). hit rate 0.02% among 390,000; in the data active means activity change below about -50%; inconclusive means about -30% to -50%; inactive means above about -30%;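 further: stimulus is agonist 54-4 at its EC80 concentration; on the % scale 0 is the no-effect control and ±100 the full control effect; compound concentration not given in the record; the text of the record puts the active cut at -80%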
#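 TRPML1-DL cells, Tet-induced overnight (~16 h, 37 °C) at 1,500 cells/well, were loaded with Ca8 no-wash dye plus quencher for 45-90 min at room temperature. Compounds were pinned during FDSS kinetic reading; agonist 54-4 at EC80 (4 uM final) then added.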
# * hit, by the source's call. Only part of the results is shown; count on the stated rates, not on these rows.
# Results follow in this order: TRPML1 inh, TRPML1 ag
COc1ccccc1NC(=O)c1c(NCc2sccc2C)sc2c1CCCCC2
    1, -0.5
O=C(c1ccc2c(c1)N(Cc1cccc(F)c1)C(=O)c1ccccc1S2)N1CCCC1
    32, 5.6
O=C(COc1ccccc1)NCc1ccc2c(c1)CCN2C(=O)c1ccccc1
    11, 1.5
Cc1ccc(N2CC(NC(=O)C3CCCCC3)CC2=O)cc1C (stereo not given)
    0, -0.8
COCCn1c(SCC(=O)c2c(C)[nH]c3ccccc23)nc2cc(C(=O)NC(C)C)ccc2c1=O
    -9, 0.4
Cc1nnc(NC(=O)CSc2nc3c([nH]c4ccccc43)c(=O)n2-c2ccc(Cl)cc2)s1
    -9, 1.4
CCc1cc2c(cc3c(=O)n(CC(=O)NCc4cccc(Cl)c4)nc(CC)n32)s1
    0, -0.1
CNC(=O)c1cnc2sc(N3CCCCCC3)nn2c1=O
    1, -1.2
CCOc1ccccc1NC(=O)CSc1nc2cc(OC)c(OC)cc2c2nc(-c3ccccc3)nn12
    2, -0.6
CSc1ncc(C(=O)NCc2ccccc2)c(-c2ccccc2)n1
    -22, 1.1
COc1ccc(CCNC(=O)Cn2c(=O)cc(C(F)(F)F)c3c(C)nn(C)c32)c(OC)c1
    20, 0.8
COc1cc(C(=O)Nc2ccc(Cl)c(-c3nc4ncccc4o3)c2)cc(OC)c1OC
    5, 0.5
CCOc1ccccc1C(=O)NCC(c1cccs1)S(=O)(=O)c1ccc(F)c(C)c1 (stereo not given)
    38, 2.0
O=C(Nc1ccccc1F)C1CCN(S(=O)(=O)c2ccc3c(c2)CCCN3C(=O)C2CCC2)CC1
    10, 0.0
COc1ccc(CCNC(=O)CCc2c(C)nc3c(c(C)nn3-c3ccccc3)c2C)c(OC)c1
    7, 2.4
O=C(c1ccc2c(c1)OCCO2)N(Cc1cccnc1)c1nc2ccc(Cl)cc2s1
    -18, -1.0
NC(C(=O)O)c1nn[nH]n1 (stereo not given)
    13, 0.8
COCCNC(=O)CSc1nc2cc3c(cc2c(=O)n1CCCC(=O)NCc1ccc2c(c1)OCO2)OCO3
    -16, 1.2
CCOc1ccccc1CNC(=O)C1CCN(S(=O)(=O)c2cccc3nonc23)CC1
    20, 4.3
COc1ccc(OC)c(Nc2nc3ccccc3n3c(C)nnc23)c1
    18, -0.4
CS(=O)(=O)N1CCCc2cc(C(=O)Nc3cccc(C(F)(F)F)c3)ccc21
    15, -0.1
O=C(NCc1ccccc1F)C1CCN(c2nnc(-n3cccc3)s2)CC1
    19, 1.7
Cc1ccc(NC(=O)CCCn2c(=O)c3cccn3c3ccccc32)c(C)c1
    -9, 3.5
O=C(c1ccc2c(c1)N(Cc1c(F)cccc1Cl)C(=O)c1ccccc1S2)N1CCOCC1
    23, -0.7
COC(=O)c1scc(-c2ccc(C)cc2)c1S(=O)(=O)Nc1cc(Cl)c(OC)cc1OC
    38, 0.1
Cn1cc(S(=O)(=O)N2CCCCCC2)cc1C(=O)NCc1ccccc1Cl
    8, 1.1
O=C(CCc1ccccc1)NC1CC(=O)N(c2ccccc2)C1 (stereo not given)
    1, 0.9
Cc1nn(-c2ccc(N3CCCC3)nn2)c(C)c1CCC(=O)NCc1ccc(OC(C)C)cc1
    9, -0.5
COC(=O)Cn1c(=O)c2cccn2c2ccc(F)cc21
    -22, 0.9
CCOc1ccc(NC(=O)c2sc3nc4n(c(=O)c3c2C)CCCC4)cc1
    5, -0.9

# 3 entries from above, comma-delimited.
SMILES,TRPML1 inh,TRPML1 ag
NC(C(=O)O)c1nn[nH]n1 (stereo not given),13,0.8
COCCNC(=O)CSc1nc2cc3c(cc2c(=O)n1CCCC(=O)NCc1ccc2c(c1)OCO2)OCO3,-16,1.2
CCOc1ccccc1CNC(=O)C1CCN(S(=O)(=O)c2cccc3nonc23)CC1,20,4.3

# The listing picks up; the 2 compounds before the break are reprinted first.
# Results follow in this order: TRPML1 inh, TRPML1 ag
COC(=O)Cn1c(=O)c2cccn2c2ccc(F)cc21
    -22, 0.9
CCOc1ccc(NC(=O)c2sc3nc4n(c(=O)c3c2C)CCCC4)cc1
    5, -0.9
COc1ccc(S(=O)(=O)Nc2ccc3oc4c(c3c2)C(=O)CC(C)(C)C4)cc1
    -19, 1.4
CCCCc1nnc(SCc2cc(=O)c3cc(C(=O)OCC)ccc3[nH]2)n1C
    -9, 2.9
O=C(CCn1cnnn1)Nc1cc(C(F)(F)F)cc(C(F)(F)F)c1
    4, 1.0
Cc1nnc(NC(=O)CSCc2cc(=O)c3cc(Cl)ccc3[nH]2)s1
    -7, 4.0
COCCNC(=O)C(=O)Nc1ccc2nc3n(c(=O)c2c1)CCCCC3
    4, 4.7
Cc1ccc(SCc2nc(-c3ccc(C(=O)NCCc4ccc(Cl)cc4)cc3)oc2C)cc1
    -11, -1.0
O=C(Nc1c(-c2ccccc2)nc2ccccn12)c1ccc(Br)cc1
    6, 1.1
Cc1ccc(CNC(=O)Cn2c(=O)n(Cc3ccccc3)c(=O)c3sc4ccccc4c32)cc1
    -13, -0.3
CCc1nc(-c2cc(S(=O)(=O)N3CCN(c4ccccc4)CC3)ccc2OC)no1
    10, 0.2
COc1cc2nc(NCc3ccccc3Cl)n3nc(-c4cccnc4)nc3c2cc1OC
    4, 0.5
CCOC(=O)c1c(-c2ccc(C)cc2)csc1NC(=O)c1cc(-c2ccc(OC)cc2)on1
    -5, -0.2
COc1cccc(CNC(=O)C2CCCN(c3nnc(-n4c(C)ccc4C)s3)C2)c1 (stereo not given)
    33, 0.4
Cc1nn(CC(=O)NCc2ccco2)c(=O)c2cc3ccccc3n12
    2, -1.2
Cc1ccc(NC(=O)CN2CCSc3ccc(S(=O)(=O)N4CCCC4)cc32)cc1
    -6, 2.0
Cn1c(=O)[nH]c(=O)c2c1nc(CN1CCN(c3ccccc3F)CC1)n2Cc1ccc(F)cc1
    27, 0.5
O=S(=O)(c1ccc(-c2cnc(C3CC3)o2)cc1)N1CCN(c2ccccc2F)CC1
    12, -0.2
CCOc1ccc(CC(=O)N2CCc3cc(OC)c(OC)cc3C2COc2ccc3c(C)cc(=O)oc3c2)cc1 (stereo not given)
    19, -0.1
CCc1ccc(-n2nc(C)c3c(C(=O)Nc4ccc(Cl)cc4)cc(C)nc32)cc1
    13, 1.2
Cc1ccc(NC(=O)C(=O)NCC(c2cccnc2)N2CCN(C)CC2)cc1C (stereo not given)
    8, 0.0
Cc1ccc(S(=O)(=O)c2c(O)cc(C)c(NS(=O)(=O)c3ccc(Br)cc3)c2C)cc1
    -5, -0.8
Cc1ccc2c(=O)cc(C(=O)Nc3ccc(S(=O)(=O)N(C)Cc4ccccc4)cc3)oc2c1C
    6, 1.7
COc1ccc(NC(=O)C2COc3ccccc3C2)cc1Cl (stereo not given)
    -7, 1.0
Cc1nn(C)c2c1c(C(F)(F)F)cc(=O)n2C(C)C(=O)Nc1ccccc1F (stereo not given)
    -15, 1.3
COc1ccc(NC(=O)c2oc3ccccc3c2NC(=O)Cc2cccs2)cc1
    20, 0.6
O=c1c2sc3ccccc3c2n(Cc2ccccc2)c(=O)n1CCc1ccccc1
    -11, 0.8
CCCn1cc(S(=O)(=O)c2ccc(OCC)cc2)c(=O)c2cc(C)ccc21
    -11, -1.1
CCc1cc(C(=O)Nc2cnn(Cc3ccc(F)cc3)c2)no1
    -5, -1.2
CCOc1ccc(N(C)S(=O)(=O)c2c(C(=O)N3CCC(C)CC3)c(C)n(C)c2C)cc1
    -20, 1.8
CCN(CCCNC(=O)c1cc2c(=O)n(CC)c3ccccc3c2s1)c1ccccc1
    -1, -0.6
N#Cc1c(Nc2cccc(F)c2)sc(C(=O)c2ccc(Cl)cc2)c1N
    -11, 1.3
CCc1nn2c(=O)cc(COC(=O)c3cccc(NC(=O)CCc4ccccc4)c3)nc2s1
    19, 2.3
CCC1=Nc2cc(C(=O)NCCc3ccc(OC)c(OC)c3)ccc2Sc2ccccc21
    6, 0.2
COc1cccc(Cn2c(=O)n(-c3cc(C)cc(C)c3)c(=O)c3oc4ccccc4c32)c1
    -15, 1.9
COc1cccc(-n2c(SCC(=O)N3CCc4ccccc43)nc3c([nH]c4ccccc43)c2=O)c1
    -4, 0.6
Cc1ccc(-n2nc3c(=O)n(CC(=O)Nc4ccccc4F)nc(C)c3c2C)c(C)c1
    -15, 1.1
COc1ccc(-n2c(CC3C(=O)Nc4ccc(C)cc43)nc3ccccc3c2=O)cc1 (stereo not given)
    5, 2.8
CCCCSc1nc2sc3c(c2c(=O)n1-c1ccccc1C)CC(C)(C)OC3
    7, 0.5
COc1ccccc1NC(=O)c1sc2nc(C)c(C(=O)Nc3ccc(C)cc3C)c(-c3cccs3)c2c1N
    7, 4.0
COc1cc2ccccc2cc1C(=O)N1CCN(c2nc3c(F)cc(F)cc3s2)CC1
    7, 0.2
CCN(CC)CC(C)CNC(=O)c1cc(-c2ccc(Br)s2)nc2ccccc12 (stereo not given)
    -11, -0.3
COc1cccc(C(=O)N(Cc2ccc(C)o2)C2CCS(=O)(=O)C2)c1 (stereo not given)
    -12, -0.5
COc1ccc(S(=O)(=O)N(CCc2ccccc2)CC(=O)Nc2ccc(C)c(C)c2)cc1OC
    -21, -0.8
O=C(c1cnn(-c2cccc(F)c2)c1-n1cccc1)N1CCN(c2ccccc2F)CC1
    -13, 71*
COc1ccc2c(c1)sc1ncc(C(=O)NCc3ccc(Cl)cc3)c(=O)n12
    -1, -0.3
COc1ccc2cc(C(=O)NCc3ccc4c(c3)CCN4C(=O)c3ccc(F)cc3)[nH]c2c1
    -4, 0.4
Cc1ccc(Nc2sc(C(=O)c3ccccc3)c(N)c2C(=O)NC(C)C)cc1
    12, -0.4
CCCCN(Cc1ccco1)C(=O)Cn1ncc2c([nH]c3ccccc32)c1=O
    38, 3.9
Cc1ccccc1N1CCN(S(=O)(=O)c2nnc(NC(=O)c3ccc(C(C)C)cc3)s2)CC1
    35, 0.5
CCOc1ccc(NC(=O)CSc2cn(CC(=O)N3CCCCCC3)c3ccccc23)cc1
    3, 1.3
COc1ccc(-c2noc(-c3ccc(N4CCCC4)c([N+](=O)[O-])c3)n2)cc1
    8, 0.3
Cc1cccc(NC(=O)Cn2c(=O)n(Cc3nc(-c4ccccc4)no3)c(=O)c3ccccc32)c1
    -13, -0.1
CCOc1ccc(Oc2nc(NC)nc(N3CCOCC3)n2)nn1
    -9, -0.3
CCOC(=O)c1c(NC(=O)/C=C/c2ccc(OCC)cc2)sc(C(C)=O)c1C
    -2, 4.6
CC(C)OCCCNC(=O)CN1C(=O)COc2ccc(S(=O)(=O)N3CCOCC3)cc21
    -4, -0.1
COc1ccc(C2C=C(c3ccccc3)Nc3nc(NC(=O)/C=C/c4ccc(Cl)cc4)nn32)cc1 (stereo not given)
    7, -1.1
COc1ccc(NC(c2ccc(F)cc2)c2nnc(-c3ccccc3Cl)o2)cc1Cl (stereo not given)
    33, -0.9
CCOc1ccc(NC(=O)CCCc2nc(-c3cccc(OC)c3)no2)cc1
    25, 1.9
COc1ccc(NC(=O)C2CCCN(S(=O)(=O)c3ccc(Cl)cc3)C2)cc1 (stereo not given)
    -12, 2.5
COc1ccc(NS(=O)(=O)c2cnc(N)nc2)cc1Cl
    -2, -1.0
Cc1nnc2c3ccccc3nc(N3CCN(c4ccccc4)CC3)n12
    2, 2.5

# A second format for some results above.
structure: CCN(CC)CC(C)CNC(=O)c1cc(-c2ccc(Br)s2)nc2ccccc12 (stereo not given)
  TRPML1 inh: -11
  TRPML1 ag: -0.3

structure: COc1cccc(C(=O)N(Cc2ccc(C)o2)C2CCS(=O)(=O)C2)c1 (stereo not given)
  TRPML1 inh: -12
  TRPML1 ag: -0.5

structure: COc1ccc(S(=O)(=O)N(CCc2ccccc2)CC(=O)Nc2ccc(C)c(C)c2)cc1OC
  TRPML1 inh: -21
  TRPML1 ag: -0.8

structure: O=C(c1cnn(-c2cccc(F)c2)c1-n1cccc1)N1CCN(c2ccccc2F)CC1
  TRPML1 inh: -13
  TRPML1 ag: 71*

# Further structures:
# Results follow in this order: TRPML1 inh, TRPML1 ag
CCOC(=O)c1c(C)[nH]c(C)c1S(=O)(=O)N1CCCC(C(=O)Nc2cccc(CC)c2)C1 (stereo not given)
    22, -0.1
CCn1c(=N)c(C(=O)NC2CCCC2)cc2c(=O)n3cc(C)ccc3nc21
    1, -0.7
CCCc1nnc(NC(=O)C(CC)Sc2nnc3c4ccccc4n(C)c3n2)s1 (stereo not given)
    -8, -0.5
CCC(=O)N1CCc2cc(CNS(=O)(=O)c3ccc(CC(C)C)cc3)ccc21
    11, 2.0
Cc1cc(C)c(NC(=O)C(C)n2c(=O)cc(-c3ccccc3)c3c(C)nn(C)c32)c(C)c1 (stereo not given)
    -5, 0.4
COc1cccc(NC(=O)Cn2c(=O)n(-c3ccc(Cl)cc3)c(=O)c3sc4ccccc4c32)c1
    -2, 2.4
COc1ccccc1NC(=O)C1=C(C)Nc2nc(SCc3ccccc3F)nn2C1c1ccncc1 (stereo not given)
    -7, -0.2
COc1ccc2c(c1)c1c(c(=O)n(-c3cccc(C)c3)c(=O)n1CC(=O)NCc1ccc(C)cc1)n2C
    9, -0.3
